Mtb betalactam = beta-lactam sensitization of Mtb H37Rv. M. tuberculosis H37Rv growth with meropenem, percent inhibition; hits of this screen are not shown here. inhibition, % at 25 µM. 330,000 tested, 0.27% active. AID 434955;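 active = about 74% or more and at least 40 points above the plate without the antibiotic, then above 30% in a dose series; inconclusive = first-round hits that could not be retested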;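 also: growth measured after seven days incubation then overnight dye step; 0% = bacteria only wells and 100% = bacteria with antibiotic; twin plates without the antibiotic show which effects depend on it; some results filed as inactive read as strong as hits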
Mtb H37Rv = M. tuberculosis H37Rv growth inhibitors, H37Rv strain (AID 1626). M. tuberculosis H37Rv growth inhibition; higher % means a stronger effect. inhibition, % at 10 µM; hits with a dose series show IC50 in µM. 220,000 tested, 0.95% active;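 active = confirmed in a dose series; inconclusive = inhibition above 80% but not taken into the dose series; inactive = below 80% or under 30% at every dose of the series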;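 also: bacteria incubated seven days before Alamar blue readout; 0% = bacteria only wells and 100% = bacteria with antibiotic wells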
Arbovirus anti = blocks arbovirus infection. 200,000 tested, 0.37% active. arbovirus infection cell-based antiviral screen. inhibition, % at 10 µM. AID 1251;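 active = inhibition from about 30%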;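 also: bluetongue infection of BSR cells; cell survival read as ATP light after 72 h; 0% = infected wells without compound and 100% = uninfected wells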
YopH inh = inhibitors of Yersinia enterocolitica YopH tyrosine phosphatase | AID 898 | 140,000 tested, 0.16% active | fluorescence Ex485/Em525 | inhibition, %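 (about 10 µM by stock and volumes)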;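 active = inhibition of 50% or more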;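 also: controls were vehicle for no effect and minimum signal wells for full effect; inactives centre near -20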
RecA intein inh = Mtb RecA intein splicing inhibition. P9WHJ3. cell-free RecA intein splicing, fluorescence. inhibition, %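 (about 9 µM by stock and volumes)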. 290,000 tested, 0.75% active; in the data active = inhibition above about 30%; inconclusive = no clear call, values can overlap the other calls;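 also: 0% = vehicle wells and 100% = reference inhibitor control wells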
Target sequence (P9WHJ3 whole entry, looked up): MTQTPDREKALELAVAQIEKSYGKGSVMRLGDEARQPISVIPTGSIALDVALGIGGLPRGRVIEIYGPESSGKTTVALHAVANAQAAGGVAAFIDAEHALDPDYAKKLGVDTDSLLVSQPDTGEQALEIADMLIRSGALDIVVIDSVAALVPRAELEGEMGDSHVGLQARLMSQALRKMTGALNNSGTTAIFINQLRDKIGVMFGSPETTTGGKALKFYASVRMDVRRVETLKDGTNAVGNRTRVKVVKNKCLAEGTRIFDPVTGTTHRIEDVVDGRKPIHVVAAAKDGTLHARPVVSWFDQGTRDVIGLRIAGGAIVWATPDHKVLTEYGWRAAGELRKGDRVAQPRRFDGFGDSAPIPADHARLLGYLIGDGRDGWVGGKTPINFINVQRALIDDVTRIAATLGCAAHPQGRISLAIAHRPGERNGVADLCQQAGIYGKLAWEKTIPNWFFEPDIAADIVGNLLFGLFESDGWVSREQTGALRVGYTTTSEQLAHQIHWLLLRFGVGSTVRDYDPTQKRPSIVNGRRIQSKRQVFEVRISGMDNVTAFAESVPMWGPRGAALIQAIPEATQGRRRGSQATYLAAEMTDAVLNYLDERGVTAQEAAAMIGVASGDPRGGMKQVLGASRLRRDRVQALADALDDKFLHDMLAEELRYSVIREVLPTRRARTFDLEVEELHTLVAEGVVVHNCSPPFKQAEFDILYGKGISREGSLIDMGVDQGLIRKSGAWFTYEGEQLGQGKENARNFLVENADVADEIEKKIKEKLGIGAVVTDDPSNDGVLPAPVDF
Arbovirus anti repeat = further read-out of Arbovirus anti, marked with its call; inhibition, %; measured here: 10K subset replicate screen; many hits read low in the repeat;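 first of two repeat runs on a subset; 0% = infected and 100% = uninfected wells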
The depositor's hits bear a star; u = inconclusive; x = not tested or not shown. Not all compounds are listed, so the mix of outcomes need not match the whole.

SMILES	Mtb betalactam	Mtb H37Rv	Arbovirus anti	YopH inh	RecA intein inh	others
O=C(NNC(=S)NC(=O)c1cccs1)c1ccc(O)cc1	85	x	x	x	1.9
CC1CCN(CCCNC(=O)C2CC(=O)N(CCc3ccccc3)C2)CC1 (centres undefined)	3	x	x	x	-0.4
Cn1nnc2c[n+](CC(=O)c3ccc(Cl)cc3)cc(Br)c21	-7	-7%	x	x	-27
N#CCc1ccc(Oc2ccc([N+](=O)[O-])cn2)cc1	-11	4%	x	x	-1.2
O=C(O)CN1CCCCC1	-12	8%	9	x	-0.4
Cc1cc(=O)n2ccsc2n1	-10	-7%	0	-1	-5.0
O=C(/C=C/N1CCN(Cc2ccccc2)CC1)C(F)(F)F	-6	5%	12	x	0.8
O=C(c1ccc2c(c1)OCO2)C1CCCN(Cc2c(F)ccc(F)c2F)C1 (centres undefined)	2	x	x	x	1.5
CCOC(=O)c1c(NC(=O)CN2CCCCC2)sc2c1CCN(C(=O)OCC)C2	79	7%	-15	0	18
CCOC(=O)c1cnn(-c2ccccc2)c1NC(=O)C(F)(F)C(F)(F)C(F)(F)F	3	-6%	5	-18	-1.5
Cc1ccc(S(=O)(=O)N2CCCCC2)cc1C(=O)NCCC1=CCCCC1	0	x	x	x	-4.2
COc1ccc(C)cc1N(C(=O)c1ccc(F)cc1)c1nc2ccccc2s1	4	9%	1	-22	11
CCN(CC)C(=O)CSc1nnc(-c2ccccc2)n1N	-16	-8%	-6	-58	-2.5	Arbovirus anti repeat=-3
CC1CC(C)CN(C(=O)Cn2cc(C=O)c3ccccc32)C1 (centres undefined)	-6	-4%	-2	x	-1.1
CCOc1cc(C(=S)N2CCCCC2)ccc1OCC(=O)NCc1ccccc1	1	-3%	15	-28	3.5
CCc1ccc(CNC(=O)C2CC(=O)N(CCc3ccc(C)cc3)C2)cc1 (centres undefined)	-1	-2%	4	-20	-0.5
COc1c(Cl)cc(Cl)cc1/C=C/C(=O)c1ccc(NC(=O)c2cccs2)cc1	x	7.9µM*	-44	-26	21
CN1CCN(c2ccc(NC(=O)c3ccc4c(c3)OCCO4)cc2)CC1	1	1%	0	x	-0.1
C=CCc1cc(Cl)ccc1OCCN1CC(C)OC(C)C1 (centres undefined)	-2	4%	0	x	3.9
CC(=O)Nc1ccc(NS(=O)(=O)c2ccc(C)cc2)c([N+](=O)[O-])c1	-2	-5%	-1	x	-0.4
CN(CCCC(=O)NCc1ccco1)S(=O)(=O)c1ccccc1	-2	-4%	7	-21	0.5
O=C(Nc1ccc(Cl)c([N+](=O)[O-])c1)ONC1=NCCCCC1	-1	0%	10	x	0.1
CC(C)c1c(C(=O)N/N=C/c2ccc(OCc3ccc(F)cc3)cc2)nnn1-c1nonc1N	5	x	x	x	-1.4
O=C1CSC(c2nn(-c3ccccc3)cc2-c2cc3ccccc3oc2=O)N1Cc1ccco1 (centres undefined)	-1	4%	17	-37	x	Arbovirus anti repeat=7
Cc1ccccc1-n1nnnc1SCC(=O)NCC1CCCO1 (centres undefined)	-8	-2%	-3	x	1.2
CC(=O)c1ccc(-n2nncc2-c2ccc([N+](=O)[O-])cc2)cc1	2	10%	9	x	-2.2
CC1CN(C(=S)SCC(=O)c2ccc(Cl)cc2)CC(C)O1 (centres undefined)	98	u	-12	2	3.1
COc1cc(S(=O)(=O)N(C)C)ccc1Br	6	0%	-8	4	-1.0
CCOP(=O)(Cc1ccccc1)OCC	-5	x	x	x	5.1
O=C(NC(=O)N1CCN(c2ccc(F)cc2)CC1)c1ccccc1	-2	-1%	-26	-13	-3.7
COc1cc2[nH]c(=S)n(-c3ccccc3)c(=O)c2cc1OC	0	4%	-4	x	-0.9
CCOC(=O)Nc1ccc(S(=O)(=O)Nn2cnnc2)cc1	-2	-6%	-2	-21	2.8	Arbovirus anti repeat=-2
O=S(=O)(c1ccc(F)cc1)N1CCN=C1SCc1cccnc1	-2	9%	2	x	0.7
CSc1ccccc1C(=O)C1CCCN(Cc2ccncc2)C1 (centres undefined)	1	6%	8	x	1.0
COC(=O)C1C(=O)NCC1c1ccccc1 (centres undefined)	-2	x	-1	-18	-0.3
Cc1ccc2nc(Cl)c(C3CC(c4cccs4)=NN3S(C)(=O)=O)cc2c1 (centres undefined)	3	3%	4	-16	-0.4
COc1ccc(C2C(Oc3ccccc3C)C(=O)N2Cc2ccc(F)cc2)cc1OC (centres undefined)	-15	-2%	-2	-6	5.4
CC(C)CCNC(=O)CC1Nc2c3ccccc3nc(=S)n2C1=O (centres undefined)	-1	-3%	3	9	-1.4
Cc1c(C(=O)OCC(=O)NCc2ccc3c(c2)OCO3)cccc1[N+](=O)[O-]	-12	1%	-3	-36	-1.0
O=C(NC(=S)Nc1ccccc1F)c1ccc(Br)o1	-7	3%	-1	x	-2.3
COc1ccccc1C(CNC(=O)c1ccc(-c2ccccc2Cl)o1)N1CCCC1 (centres undefined)	99	x	x	x	1.0
Cc1cccc(C)c1OCCCCCNCCO	-5	-4%	7	-8	-2.3
Cc1cc(C)n(S(=O)(=O)c2ccccc2)n1	0	-1%	x	x	0.6
Fc1ccc(NC(=S)N2CCCCC2)cc1	6	-8%	6	-23	-0.1
Cc1ccc(NC(=O)COC(=O)Cc2ccsc2)c(C)c1	1	-2%	5	x	-0.3
Cc1ccc(C(=O)N/C(=C\c2cccs2)C(=O)N2CCCCCC2)cc1	-15	12%	2	-9	-0.4
O=C(CSc1ccc(Br)cc1)N1CCN(C(=O)c2ccco2)CC1	-2	-5%	1	x	-4.6
O=C(NCc1ccc2c(c1)OCO2)C1CCCN(S(=O)(=O)c2cccnc2)C1 (centres undefined)	-4	1%	-6	12	-2.4

Reprinted from the part before: 2 compounds, then new ones.
SMILES	Mtb betalactam	Mtb H37Rv	Arbovirus anti	YopH inh	RecA intein inh	others
O=C(CSc1ccc(Br)cc1)N1CCN(C(=O)c2ccco2)CC1	-2	-5%	1	x	-4.6
O=C(NCc1ccc2c(c1)OCO2)C1CCCN(S(=O)(=O)c2cccnc2)C1 (centres undefined)	-4	1%	-6	12	-2.4
O=S1(=O)[C@H]2C[C@@H]3C=C[C@@]2(CN1Cc1ccc(Cl)cc1)O3	-12	x	x	x	0.2
C/C(N)=C(/C#N)C(=O)CSc1ccc2c(c1)OCCO2	2	6%	8	-40	-0.6
CCCC(=O)N(c1ccc2oc(=O)sc2c1)S(=O)(=O)c1ccccc1	-2	-4%	-17	-123	-1.2
CSc1cccc(NC(=O)c2cnccn2)c1	-13	-12%	-4	-17	-4.4
CCOc1ccc(NC(=O)CN(C)C(=O)c2ccc3nc(CC)c(CC)nc3c2)cc1OCC	1	x	x	x	6.0
CCOC(=O)c1cnc2c(ccc3ccccc32)c1NCCCN(C)C	73	x	x	x	-2.1
CCSCc1nnc(SCC(=O)Nc2cccc(C(C)=O)c2)n1C	0	-4%	-2	x	0.9
CCn1c(=N)n(CCO)c2ccccc21	-6	-3%	-3	-31	-1.2
O=C(CN1CCN(S(=O)(=O)c2ccc(Br)cc2)CC1)N/N=C/c1ccc(Br)s1	36	49%	-10	x	7.7
CC(OC(=O)CCc1c[nH]c2ccccc12)C(=O)c1ccccc1 (centres undefined)	98	19%	-2	x	0.8
Cn1c(N)c(C(=O)COC(=O)CSc2ccc3ccccc3c2)c(=O)n(C)c1=O	2	-3%	6	-17	2.5
COCc1cc(C)nc(Nc2ccccc2C)c1C#N	-9	1%	6	-11	-0.8

Among those listed so far, seven contain two or more sulfur atoms.
SMILES	Mtb betalactam	Mtb H37Rv	Arbovirus anti	YopH inh	RecA intein inh	others
O=C(NNC(=S)NC(=O)c1cccs1)c1ccc(O)cc1	85	x	x	x	1.9
CC1CN(C(=S)SCC(=O)c2ccc(Cl)cc2)CC(C)O1 (centres undefined)	98	u	-12	2	3.1
O=S(=O)(c1ccc(F)cc1)N1CCN=C1SCc1cccnc1	-2	9%	2	x	0.7
Cc1ccc2nc(Cl)c(C3CC(c4cccs4)=NN3S(C)(=O)=O)cc2c1 (centres undefined)	3	3%	4	-16	-0.4
CCCC(=O)N(c1ccc2oc(=O)sc2c1)S(=O)(=O)c1ccccc1	-2	-4%	-17	-123	-1.2
CCSCc1nnc(SCC(=O)Nc2cccc(C(C)=O)c2)n1C	0	-4%	-2	x	0.9
O=C(CN1CCN(S(=O)(=O)c2ccc(Br)cc2)CC1)N/N=C/c1ccc(Br)s1	36	49%	-10	x	7.7

Next entries follow.
SMILES	Mtb betalactam	Mtb H37Rv	Arbovirus anti	YopH inh	RecA intein inh	others
CC(O)C(NC=C1C(=O)OC(C)(C)OC1=O)C(=O)O (centres undefined)	-3	2%	-2	x	-3.4
CCCCCCCCCCOC(=O)Cn1c(COc2ccc(Cl)cc2)[n+](C)c2ccccc21	92	x	x	x	-2.4
O=C(O)c1ccccc1Nc1ccnc(C(F)(F)F)c1	-9	x	x	x	0.9
O=C(COc1ccccc1)NCC(=O)N/N=C/c1ccccc1	-2	-1%	6	2	-1.6
O=c1oc2ccccc2c(NCCO)c1[N+](=O)[O-]	-2	0%	19	x	0.8
Cc1ccccc1-c1nc(CSc2nc3c(c(=O)[nH]2)CCC3)c(C)o1	-3	x	3	-33	-1.5
Nc1nc2n(n1)C(=O)CC(c1ccccc1)N2 (centres undefined)	3	3%	4	x	-4.5
CC(C)(Oc1ccc(Cl)cc1)C(=O)NCC(c1cccs1)N1CCOCC1 (centres undefined)	0	x	x	x	1.2
COc1ccc(-n2c(SCC3OCCO3)nc3c(sc(=S)n3-c3ccccc3)c2=O)cc1OC	-9	0%	-2	x	-40
CCOC(=O)Cc1nn(Cc2ccccc2)c(=O)c2ccccc12	0	-3%	-9	x	0.6
O=C(CCCNS(=O)(=O)c1cccc2nsnc12)NC1CCCCC1	-1	6%	1	-18	5.7
COc1c(C(=O)N2CCCC2)ccc2ccccc12	-5	-4%	13	21	-1.6
O=C(Nc1cccc(O)c1)c1ccc([N+](=O)[O-])cc1Cl	-5	-6%	-4	x	1.4
O=C(Nc1nnc(-c2ccccc2SCc2ccccc2F)s1)Nc1ccccc1F	x	-5%	-22	-56	-0.8
CCOC(=O)C1(O)CSc2nc3sc(C(=O)O)c(C)c3c(=O)n21 (centres undefined)	-3	-4%	-1	-24	1.1
Cc1ccc(N2CCN(/N=C/c3cccs3)CC2)cc1	0	3%	-7	-21	2.4
CC(C)[C@H](NC(=O)c1ccccc1)C(=O)N1CCc2ccccc21	-5	1%	-3	3	-2.6
Cc1nc(-c2cccs2)ccc1C(=O)O	-4	-4%	9	x	0.5
Cc1cc2c(C)cc(=O)[nH]c2cc1NC(=O)CCl	67	-3%	x	x	9.1
CCc1cc(C(=O)OC)c(NC(=O)c2cc(Br)cs2)s1	-7	-1%	1	-17	-1.8
CCc1nc(SCC(=O)Nc2cccc3ccccc23)[nH]c(=O)c1C	0	x	x	x	3.1
CC(O)CN(Cc1ccc(Cl)cc1)CC(C)O (centres undefined)	6	0%	7	-3	-3.3
O=C1c2cccc3cccc(c23)C(=O)N1CC1CCN(CC(O)COCc2ccc3c(c2)OCO3)CC1 (centres undefined)	93	76%	-42	-19	-0.4
O=C(COC(=O)c1ccc(Cl)nc1)NNC(=O)c1ccc(Cl)cc1	-10	x	x	x	0.7
Cc1cc(C)c2ccc(NN)nc2c1O	100	-6%	-31	-7	-4.9
Cc1cccc(C(=O)NNC(=O)c2ccc(NC(=O)C(C)(C)C)cc2)c1	-2	x	x	x	0.4
O=C1N(Cc2ccc3c(c2)OCO3)c2ccccc2C1(O)c1c[nH]c2ccccc12 (centres undefined)	4	x	-20	-16	5.9
COc1ccc(NC(C)=O)cc1S(=O)(=O)Nc1ccc(OCc2ccccc2)cc1	2	x	x	x	5.6
CN(c1ccccc1)S(=O)(=O)c1ccc(C(=O)OCC(=O)N2CCOCC2)cc1	5	0%	3	16	-2.5
O=C(NCc1ccc2c(c1)OCO2)c1ccc(CS(=O)(=O)c2ccc(Br)cc2)o1	-2	-6%	-3	x	4.5
Cc1sc2ncnc(OCC(=O)NC(C)C(C)C)c2c1C (centres undefined)	-1	5%	-1	x	-1.0
O=C(N/N=C/c1ccccc1O)C1(O)c2ccccc2-c2ccccc21	6	3%	-22	-13	-2.3
Cc1cc(C)c(S(=O)(=O)c2ccccc2Cl)c(Cl)n1	0	12%	7	x	4.1
CCOc1ccc(C(C)NC(=O)Nc2ccc(F)cc2F)cc1 (centres undefined)	0	x	x	x	-0.5
Clc1ccccc1OCCCn1ccnc1	-2	x	x	x	0.5
COc1ccc(NC(=O)CSc2nnc(C3CCCCC3)n2N)c(OC)c1	-1	x	x	x	-0.3
CCc1ccccc1NC(=O)C1CCN(C(=O)N2CCOc3ccccc32)CC1	5	x	x	x	2.4
CC1C(=O)N2CCCc3cc(S(=O)(=O)N4CCN(c5ccc(F)cc5)CC4)cc1c32 (centres undefined)	0	x	x	x	2.4
CCCS(=O)(=O)N1CCCC(C(=O)NC(C)c2ccc3c(c2)OCCO3)C1 (centres undefined)	-15	-14%	4	4	0.8
